RanGTP-Imp inh – inhibitors of RanGTP-importin-beta interaction, primary screen, biochemical, FRET, CFP-Ran, YFP-importin-beta, homogeneous; Ran GTPase (GTP-bound) - importin-beta complex; cell-free CFP-Ran/YFP-importin-beta FRET ratio; inhibition, % (test concentration not listed); 300,000 tested, 1.1% active; AID 2216, 2009;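 active = most replicates above 15%; inconclusive = exactly half above 15%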;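 note: 0% = DMSO wells and 100% = Ran loaded with GDP instead of GTP; wells of about 40 µL received 100 nL stock; the first replicate is given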
Calb FLC – C. albicans growth inhibition with fluconazole, primary screen, CaCi-2 strain, Alamar Blue fluorescence; C. albicans CaCi-2 (fluconazole-resistant clinical isolate) + fluconazole, 48 h; 300,000 tested, 0.57% active; growth inhibition, % (no concentration beside the values);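 active = most replicates above 75%; inconclusive = exactly half above 75%; inactive = most below 75%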;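 note: all wells also contain fluconazole at 8 µg/ml as a sub-toxic cotreatment; 0% = median of DMSO wells and 100% = median of geldanamycin control wells; wells of about 8 µL received 7.5 nL stock; the first replicate is given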
A1 inh – caspase 3/7 activation in MEF A1-2A-BIM cells, primary screen, A1 inhibitor project, cell-based, luminescence, HTS; Caspase-Glo 3/7 luminescence, 3 h; percent of clofoctol response, vehicle zero; 330,000 tested, 0.066% active; AID 2462, 2010; caspase activation, % (test concentration not listed);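 active = over half of replicate activation scores above 10%, or exactly half above 10 with the replicate mean above 10; inconclusive = replicate mean below 10 yet half the replicates above 10; inactive = over half of replicates below 10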;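 note: wells of about 30 µL received 50 nL stock; many hits fall short of the cut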
Vif A3G – inhibitors of Vif binding to APOBEC3G peptide, primary screen, biochemical, TR-FRET, GST-Vif 1-94, biotin-A3G peptide, dose response retest (AID 1117319) | Virion infectivity factor (Human immunodeficiency virus type 1 group M subtype B (isolate … | TR-FRET GST-Vif / biotin-A3G peptide binding; higher % means a stronger effect; test concentration not given here; strong numbers were not always called active | inhibition, %, or IC50 in µM where a hit was titrated | 260,000 tested, 0.57% active;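 active = above the screen mean plus three standard deviations and confirmed in dose response; inconclusive = results disagree or hit not tested in dose response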;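 note: Vif residues 1-94 fused to GST binding biotinylated APOBEC3G peptide 110-148; 0% = full assay without inhibitor and 100% = GST in place of GST-Vif; retest series ran down from 100 µM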
Ecoli rRNA inh – reduced GFP signal of wild-type E. coli, primary screen, bacterial rRNA inhibitor project, GFP/RFP fluorescence, OD600, single point; E. coli WT GFP vs humanized-ribosome RFP mutants, 24 h; hits give low values; DMSO median 0, no signal -100; GFP signal change (wild-type ribosome), % (no concentration beside the values); 350,000 tested, 1.6% active; AID 720706, 2013;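 active = significant combined selectivity score with lowered wild-type GFP, culture density cut under 30%, mutant RFP and density less affected; inactive = any of these conditions unmet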; note: one replicate is shown; some compounds called inactive have numbers as strong as hits
T cruzi inh – inhibitors of intracellular T. cruzi growth, primary screen, luminescence, NIH3T3 host cells; T. cruzi beta-gal in NIH3T3, 90 h; inhibition, % (concentration not given with the values); 300,000 tested, 1.4% active;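 active = mean inhibition across valid replicates above about 55%, limit read from the data; inconclusive = mean below that limit but half or more replicates reach it; inactive = mean below it, under half of replicates reach it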;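 note: signal also drops with host cell toxicity which is not excluded here; 0% = plate median of DMSO wells and 100% = zero luminescence signal; higher percent means less beta-gal luminescence so fewer parasites; stock transfer was 50 nL into about 50 µL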
MLL AF4-AF9 inh – inhibitors of AF4 peptide binding to AF9, primary screen, biochemical, AlphaScreen, biotin-AF4 peptide, FLAG-AF9, single point. Protein AF-9 (Homo sapiens), P42568. inhibition, % at 10 µM. 350,000 tested, 0.47% active;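 active = every replicate reaching a set inhibition limit, whatever the replicate mean, cut at about 25% in these data; inconclusive = mean inhibition reaches that limit but some replicates miss it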;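 note: 0% = plate neutral control median and 100% = total signal loss; the record names both 10 and 1 µM as test concentration; the first replicate is given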
Target sequence (P42568 whole entry, looked up): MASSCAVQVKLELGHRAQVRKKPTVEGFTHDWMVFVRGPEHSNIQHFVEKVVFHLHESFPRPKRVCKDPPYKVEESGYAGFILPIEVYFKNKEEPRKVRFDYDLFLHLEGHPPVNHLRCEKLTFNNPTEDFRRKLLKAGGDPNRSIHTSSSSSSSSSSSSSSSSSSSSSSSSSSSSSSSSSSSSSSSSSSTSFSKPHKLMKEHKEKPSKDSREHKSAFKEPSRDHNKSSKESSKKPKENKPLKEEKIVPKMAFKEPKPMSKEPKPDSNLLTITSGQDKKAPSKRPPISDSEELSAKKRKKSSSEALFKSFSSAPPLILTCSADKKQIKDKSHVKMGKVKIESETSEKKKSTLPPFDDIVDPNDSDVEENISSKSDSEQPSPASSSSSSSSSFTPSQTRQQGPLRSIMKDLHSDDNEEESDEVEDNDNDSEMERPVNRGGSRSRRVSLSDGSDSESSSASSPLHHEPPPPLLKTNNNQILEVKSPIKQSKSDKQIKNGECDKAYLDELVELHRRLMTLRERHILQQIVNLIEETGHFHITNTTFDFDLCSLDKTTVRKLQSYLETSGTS
Beta apoptosis – inhibitors of cytokine-induced beta cell apoptosis, primary screen, luminescence | INS-1E cytokine-induced death, ATP luminescence, 48 h; percent of positive-control rescue, neutral wells zero | protection from apoptosis, % (no concentration beside the values) | 300,000 tested, 0.8% active | AID 435005, 2010;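 active = all replicates at 75% or more, or half of them and the mean; inconclusive = half reach 75% but not the mean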;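 note: 0% = cytokine-treated negative control wells and 100% = positive control rescue; higher means more ATP so stronger rescue from cytokine killing; wells of about 40 µL received 100 nL stock; the first replicate is given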
Ecoli rRNA inh OD600 – also measured in Ecoli rRNA inh; calls as there; OD600 change, %; measured here: OD600 growth;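 optical density of the mix in the first replicate; 0 = DMSO median and -100 = no signal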
Ecoli rRNA inh RFP – second read-out of Ecoli rRNA inh, no call of its own (marks repeat the call); RFP signal change, %; measured here: RFP humanized mutant strains;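 first replicate; 0 = DMSO median and -100 = no signal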
Starred values were filed as active, the others as inactive; ? = inconclusive; / = no result given.

Values run as follows: Beta apoptosis	Ecoli rRNA inh RFP	T cruzi inh	Calb FLC	Ecoli rRNA inh OD600	MLL AF4-AF9 inh	RanGTP-Imp inh	A1 inh	Vif A3G	Ecoli rRNA inh
Cc1cccc(-n2cc[nH]c2=S)c1C
  -11.1	/	-2.0	15.7	/	-1.0	-0.6	1.5	23.0%	/
COC(=O)c1ccc(CNC(=O)CN(CCC(C)C)S(=O)(=O)c2ccc3c(c2)OCCO3)cc1
  -6.7	0.3	15.9	1.9	-13.3	0.1	-3.0	0.3	19.1%	-19.0
O=C(COC(=O)CCC(=O)c1ccc(F)cc1)Nc1cccc(S(=O)(=O)N2CCCC2)c1
  -0.9	-1.1*	0.5	-0.3	-8.3*	0.0	?	1.6	/	-21.2*
Cc1ccc(S(=O)(=O)CC(=O)N2CCOCC2)cc1
  -0.4	2.8	-12.6	-6.8	5.2	-0.9	-3.1	-0.4	/	8.4
CC(=O)n1cc(C(C[N+](=O)[O-])SCCN)c2ccccc21 (stereo unspecified)
  0.0	/	-12.9	12.1	/	/	0.7	1.6	4.6%	/
CCN1CCN(CCNC(=O)C2CCN(Cc3nc(-c4ccc(Cl)cc4)oc3C)CC2)CC1
  4.2	/	-3.8	5.2	/	/	3.5	0.1	-8.0%	/
Cc1cc(C(=O)N/N=C/c2cccn2C)n[nH]1
  3.9	1.2	-2.7	?	14.2	0.3	-0.6	-2.2	/	21.9
CCCC1(C(=O)OCC)NC(c2ccco2)C2C(=O)N(C)C(=O)C21 (stereo unspecified)
  -2.4	1.7	-0.6	-25.7	2.0	-0.7	-1.7	1.9	-4.7%	11.4
Cc1ccc(C(=O)Nc2nnc(-c3ccncc3)s2)o1
  -7.2	-7.1	-21.5	?	7.7	0.5	1.6	0.0	-8.8%	8.4
Nc1nc2c(nc(Br)n2[C@@H]2O[C@@H]3COP(=O)(O)O[C@H]3[C@H]2O)c(=O)[nH]1
  /	/	-2.8	-2.2	/	-3.4	4.7	-0.4	/	/
O=C(NCCCN1CCOCC1)c1ccccc1NS(=O)(=O)c1ccc(F)cc1
  4.6	-1.1	-7.7	-10.9	21.4	-1.3	2.9	-0.4	24.6%	21.7
Cc1ccccc1OCCCC(=O)Nc1ccc2c(c1)OCO2
  5.8	-6.3	1.8	-20.6	-8.1	3.5	0.3	0.0	6.6%	-24.6
CCOC(=O)[C@@H]1[C@H]2COc3cc(OC)ccc3[C@@H]2N2C(=O)N(c3cccc(F)c3)C(=O)[C@]12C
  -2.8	2.0	-14.4	16.2	-7.7	-3.2	-2.6	0.0	/	10.8
Cc1ccc(S(=O)(=O)N2CCN(CCc3ccncc3)CC2)cc1
  -0.5	6.4	/	/	-7.9	-0.1	/	-1.6	-2.0%	2.2
Cc1cccc(C)c1OCC(O)CNC(C)c1ccccc1 (stereo unspecified)
  5.3	4.7	18.8	-6.7	9.6	0.3	?	0.4	/	10.4
O=c1oc(-c2ccccc2NS(=O)(=O)c2ccccc2)nc2ccccc12
  -2.3	/	-19.7	8.5	/	/	3.6	-3.7	3.5%	/
COc1cccc(N2C(=O)C(O)=C(C(C)=O)C2c2ccc(OC)c(OC)c2)c1 (stereo unspecified)
  4.9	/	1.5	-9.2	/	/	/	0.4	14.8%	/
COc1cc2c(cc1OC)C(c1cccc(C)c1)CC(=O)N2 (stereo unspecified)
  1.9	-0.7	-17.6	-7.8	-10.7	1.7	?	-0.4	1.0%	-4.0
Cc1ccc(-n2nc(C)c(=O)c(-c3ccccc3)c2NC(=O)c2cccs2)cc1
  -7.4	-1.1	-15.7	22.0	-9.2	-3.8	0.1	-1.0	-0.3%	10.2
CC(C)(C)NC(=O)NC(=O)COC(=O)c1cc[n+]([O-])cc1
  -1.2	-6.0	-4.5	12.9	8.4	-0.4	0.7	0.1	/	17.6
CCOC(=O)N1CCN(C(=O)C(c2ccccc2)c2ccccc2)CC1
  -5.2	/	-14.5	8.8	/	/	3.8	-0.5	16.0%	/
O=C(CCCc1ccccc1)Nc1nnc(C(F)(F)F)s1
  0.2	-2.1	5.1	39.9	-0.1	-0.3	-1.3	0.1	-3.5%	-5.0
CCCOc1ccc(N2CC(C(=O)Nc3ccccc3C(=O)NC)CC2=O)cc1 (stereo unspecified)
  -0.5	-16.3	2.0	0.2	-2.8	-0.8	?	0.0	-1.7%	3.3
Cc1onc(-c2c(F)cccc2Cl)c1C(=O)Nc1ccc(S(=O)(=O)Nc2ncccn2)cc1
  /	/	1.8	-1.0	/	/	-0.7	/	-0.7%	/
O=[N+]([O-])c1ccccc1OCCCOc1cccc2cccnc12
  -1.0	-3.7	6.1	6.4	-53.2	1.8	-0.3	1.4	/	-29.6
Cc1nc2c(-c3ccc(F)cc3)c(C)nn2c(C)c1CCC(=O)N1CCN(c2ccccn2)CC1
  /	-1.0	12.2	-1.3	-29.5	1.2	0.6	1.5	-1.4%	-9.8
CCOc1ccc(S(=O)(=O)NCCN2CCOCC2)c2ccccc12
  1.1	/	18.8	-7.2	/	/	1.6	-0.1	1.6%	/
COc1ccc(-c2nc3n(n2)C(c2ccccc2)C2=C(CCCC2=O)N3)cc1OC (stereo unspecified)
  -3.5	/	1.0	-19.9	/	/	-3.0	1.2	26.4%	/
Fc1ccccc1NC(=S)N(CCCN1CCOCC1)Cc1cccnc1
  -8.0	3.1	3.0	-12.1	4.7	2.2	1.1	0.2	-1.1%	16.6
O=C(O)c1cccnc1SC1CC(=O)N(c2cccc3ccccc23)C1=O (stereo unspecified)
  -1.2	/	-6.1	-13.6	/	/	4.1	0.1	/	/

The final two entries of the part before come first, to join the parts.
Values run as follows: Beta apoptosis	Ecoli rRNA inh RFP	T cruzi inh	Calb FLC	Ecoli rRNA inh OD600	MLL AF4-AF9 inh	RanGTP-Imp inh	A1 inh	Vif A3G	Ecoli rRNA inh
Fc1ccccc1NC(=S)N(CCCN1CCOCC1)Cc1cccnc1
  -8.0	3.1	3.0	-12.1	4.7	2.2	1.1	0.2	-1.1%	16.6
O=C(O)c1cccnc1SC1CC(=O)N(c2cccc3ccccc23)C1=O (stereo unspecified)
  -1.2	/	-6.1	-13.6	/	/	4.1	0.1	/	/
CCN1CCN(C(=O)C(C)Nc2cc(Cl)c(OC)cc2OC)CC1 (stereo unspecified)
  -4.5	1.8	-2.2	9.0	22.1	4.9	?	0.8	-6.7%	18.5
Cc1ccccc1NC(=O)c1ccc(-c2ccc(Cl)cc2Cl)o1
  1.3	/	6.5	3.1	/	/	-0.4	-0.4	-10.7%	/
S=C(Nc1ccc(Cl)cc1)NC1CC2CCCC(C1)N2C1CCCC1 (stereo unspecified)
  -4.0	/	11.5	-17.0	/	/	-0.5	0.9	-8.5%	/
CC1=NN(C(=O)CCc2ccc3c(c2)OCO3)C(O)(C(F)(F)F)C1 (stereo unspecified)
  -3.7	0.3	3.2	-24.7	11.4	-0.4	3.6	-0.9	5.5%	6.8
COc1ccccc1NC(=O)c1cc2ccccc2o1
  0.9	/	-6.5	-12.1	/	/	2.8	-2.3	25.8%	/
Cc1ccc(C(=O)O)cc1-n1c(=O)n(Cc2ccccc2)c(=O)c2[nH]cnc21
  1.4	1.0	-13.1	0.5	15.6	-6.0	0.2	-0.8	7.2%	4.3
CN(C)S(=O)(=O)c1ccc(N2C(=O)CC2(/C=C/c2ccccc2)C(=O)NC2CCCC2)cc1 (stereo unspecified)
  4.6	/	9.4	-28.8	/	/	3.5	0.2	12.5%	/
O=C(Nc1ccccc1)C1CC(=O)n2ncnc2N1 (stereo unspecified)
  2.3	-6.9	-18.3	33.2	19.6	1.6	5.5	0.7	13.2%	20.6
O=S(=O)(NCCN1CCCC1)c1ccc(C(F)(F)F)cc1
  /	1.4	6.6	-3.5	6.1	2.3	2.9	1.0	1.2%	9.8
COc1cccc(CNC(=O)COc2cccc(-n3cnnn3)c2)c1
  -2.5	-0.8	3.6	-5.2	2.1	-1.1	-6.3	0.7	-2.4%	1.2
CC(C)OC(=O)c1cccc(NC(=O)CSc2nnc(N)s2)c1
  -2.3	-0.5	-1.8	31.3	3.4	-1.6	-3.8	0.7	/	-13.3
O=C(Nc1sc2c(c1-c1nc3ccccc3[nH]1)CCCC2)C1CC1
  11.9	/	24.9	-9.7	/	/	0.9	0.7	1.4%	/
CCN(CC)CCNC(=O)c1ccc(NC(=O)c2ccc(COc3ccccc3)cc2)cc1
  0.7	2.6	13.9	6.1	-5.1	-0.8	-0.2	0.1	/	-10.1
CCOC(=O)C1CCN(c2c(NCc3ccc(C(=O)NC4CCCC4)cc3)c(=O)c2=O)CC1
  /	0.2	-14.1	1.5	9.7	1.6	1.1	/	0.1%	8.0
CSCCC1NC(=O)N(CC(=O)Nc2ccc(Br)cc2Br)C1=O (stereo unspecified)
  -3.4	2.2	5.9	1.1	-5.1	-2.3	6.4	1.0	-6.7%	-10.7
COc1ccccc1CNC(=O)c1cn(C)c(=O)c2cc(OC)c(OC)cc12
  3.9	/	15.5	-1.5	/	/	0.7	0.6	-4.4%	/
O=C(/C=C/c1ccccc1)OCc1cnc(Cl)s1
  -0.9	-6.4	-5.3	2.9	5.3	-1.8	1.8	0.5	0.0%	12.0
CCSc1nc2sc3c(c2c(=O)n1CC)CCC3
  -4.5	-4.8	-5.3	-0.9	-40.0	-2.4	-4.1	-0.3	/	-26.0
Cc1ccc(S(=O)(=O)Nc2ncc(C(F)(F)F)cc2Cl)cc1
  0.5	/	2.7	28.8	/	-3.7	5.3	-0.8	-5.5%	/
COC(=O)C(C)(C)ONC(=O)Nc1ccccc1
  -11.4	-4.4	-14.0	2.8	5.7	5.2	0.8	-0.1	/	11.6
Nc1nc(SCc2nnc(SCC(=O)O)n2-c2ccccc2)nc2sc3c(c12)CCCC3
  -8.4	/	-7.5	1.7	/	/	5.6	0.4	21.8%	/
COc1cc2c(cc1OC)CN(CC(=O)Nc1ccc(C)c(S(=O)(=O)N3CCOCC3)c1)CC2
  -8.0	3.2	1.0	3.6	-5.2	1.9	10.6	0.2	/	2.7
O=C(CSc1nnc2c3ccccc3c3ccccc3c2n1)Nc1ccccc1
  -1.2	/	-9.1	21.3	/	/	-0.7	1.7	-6.8%	/

An excerpt; rates above refer to the full screens.
